# Compound activity deposited in PubChem BioAssay by National Center for Advancing Translational Sciences (NCATS).
# miR-21 FLuc = raises the signal of a miR-21 reporter. HeLa miR-21 FLuc reporter, luciferase, 48 h. Potency, µM (highest dose often 38.3 µM), for the others: at the top dose reporter change, positive = more light. 340,000 tested, under 10 active; active = well fitted rising curve with a large enough effect; inconclusive = small, poorly fitted or top-dose-only effect; inactive = no such curve, though single readings can be large or run the other way;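 also: % of control where 0% means no effect; miR-21 action dims this reporter so a rising signal means less miR-21 action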
#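 Compounds were titrated across several concentrations (up to approximately 40 uM) and incubated 48 hours with HeLa miR-21-FLuc reporter cells (miR-21 target sequence downstream of FLuc, endogenous miR-21). Readout was firefly luciferase luminescence after lytic detection reagent.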
# GLA inh pH 4.5 = blocks human alpha-galactosidase A at pH 4.5; P06280; purified enzyme, 4-MU-alpha-Gal fluorescence, pH 4.5; activity change, negative = inhibition, % at 105 µM; 230,000 tested, under 10 active; inconclusive = small, poorly fitted or top-dose-only inhibition, or a rising curve; inactive = flat fitted curve, though single readings scatter; no compound was filed as active;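 also: 0% = full activity with enzyme and -100% = basal without enzyme; dose as in the result columns while the protocol names 77 µM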
# Target sequence (P06280 whole entry, looked up): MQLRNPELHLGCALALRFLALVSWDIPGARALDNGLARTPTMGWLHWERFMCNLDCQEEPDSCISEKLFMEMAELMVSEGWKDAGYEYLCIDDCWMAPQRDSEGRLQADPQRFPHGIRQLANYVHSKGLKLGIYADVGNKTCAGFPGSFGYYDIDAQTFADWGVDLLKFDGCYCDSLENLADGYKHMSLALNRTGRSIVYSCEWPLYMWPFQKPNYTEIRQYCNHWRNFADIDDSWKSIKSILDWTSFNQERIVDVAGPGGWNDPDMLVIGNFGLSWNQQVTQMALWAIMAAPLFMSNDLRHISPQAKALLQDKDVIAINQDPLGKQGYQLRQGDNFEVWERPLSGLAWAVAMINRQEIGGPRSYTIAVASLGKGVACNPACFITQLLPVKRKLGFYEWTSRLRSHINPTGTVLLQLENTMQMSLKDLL
# Rango complex inh = inhibitors of Rango-importin beta complex formation; Q14974; Rango CFP/YFP FRET sensor + importin beta, 45 min; Potency, µM (top dose mostly 92.2 µM), for inactives: at the top dose inhibition of complex formation; 340,000 tested, 0.031% active; active = rising FRET ratio curve, often small or poorly fitted; inconclusive = mostly compound fluorescence or quenching in the first reads; inactive = flat curves in all reads;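 also: potency is read from the fitted curve at half-maximal effect; 0% = DMSO wells and 100% = buffer wells lacking importin beta; nearly all actives have a fitted effect of over 15% in size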
#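 Inhibition scored from the CFP 486 nm/YFP 530 nm FRET ratio 45 min after adding 0.125 microM importin beta to 50 nM Rango biosensor preincubated 5 min with compound (room temperature, PBS with DTT, Tween-20, BSA). No-importin wells as positive control.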
# Rango dissoc inh = prevents RanGTP from dissociating the Rango-importin beta complex; O95149+P62826; Biochemical FRET Rango-importin beta, RanGTP-induced dissociation; Potency, µM (top dose mostly 46.1 µM), for the others: top-dose activity change, negative = inhibition; 340,000 tested, 0.071% active; active means falling FRET ratio curve, often poorly fitted, with flat reads before Ran was added; inconclusive means other falling curves, or compound fluorescence or quenching; inactive means flat or rising ratio curve;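 also: potency is read from the fitted curve at half-maximal effect; % of control where 0% means no effect; nearly all actives have a fitted effect of over 45% in size; -100% = wells without RanGTP and RCC1; the record marks most hits as doubtful in a second field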
#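 Recombinant Rango FRET biosensor (EYFP–snurportin 1 IBB–cerulean CFP10) at 0.1 uM premixed with 0.25 uM importin beta in PBS, 1 mM DTT, 0.02% Tween-20, 0.1% BSA. Compound added 5 min; RanGTP-RCC1 (0.6 uM Ran, 2 mM GTP, 0.2 uM RCC1) then triggers release, read at 45 min.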
# * = called active by the depositor; ? = inconclusive; / = no result given; & = joins results of further samples. Not all compounds are listed, so the mix of outcomes need not match the whole.
Structure | miR-21 FLuc | GLA inh pH 4.5 | Rango complex inh | Rango dissoc inh
O=C(Nc1cc(Cl)ccc1N1CCOCC1)c1ccc(N2CCCC2=O)cc1 | / | / | -0.5% | -1%
O=C(NCc1cccs1)C(=O)c1cn(CC(=O)N2CCCC2)c2ccccc12 | -12% | 3 | -2.4% | -2%
CN1CCc2c(sc3nc(SCC(=O)N4CCCCC4)n(-c4ccccc4)c(=O)c23)C1 | 1% | / | ? | -42%
COc1cc(/C=C(\C#N)c2nc3ccccc3[nH]2)ccc1OC(=O)c1ccco1 | -42% | -2 | ? | ?
COc1cc(OC)c(NC(=O)CNC(=O)Cn2ccc3ccccc3c2=O)cc1Cl | 9% | / | -1.0% | -11%
NC(=S)NN=C(c1ccccc1)c1ccccc1 | 16% | / | -1.1% | 4%
CN1C(=O)NC(c2ccccc2)C2=C1CN(CCc1ccccc1)C2=O (stereo not drawn) | -10% | -2 | -0.2% | -2%
COc1ccc2nc(C)c(C(=O)NN)cc2c1 | -15% | 3 | -0.1% | 10%
COc1ccc(C(=O)Oc2cccc(Nc3ncnc4ccccc34)c2)cc1OC | 19% | -8 | 0.2% | 2%
Cc1oc(-c2ccc(-c3ccccc3)cc2)nc1CN(CCO)C(C)C | 1% | / | ? | -1%
O=C(NC1CCCN(CCc2ccccc2)C1)C1CCCC1 (stereo not drawn) | -5% | / | 0.8% | -18%
CC(=O)Nc1nc(-c2ccc(Br)s2)cs1 | -18% | -6 | 0.0% | -6%
O=C(Nc1ccc(NC(=O)c2ccccc2Br)cc1)c1ccccc1 | -28% | / | -0.3% | -11%
CCc1ccc(CN(C)C(=O)c2cc(COc3cccc4cnccc34)on2)cc1 | 20% | / | -0.1% | 7%
CCCS(=O)(=O)N1CCC(C(=O)NCCN(C)Cc2ccccc2)CC1 | -3% | 8 | 3.4% | -3%
CCOC(=O)N1CCC(NC(=O)C2CCCN(C(=O)N3CCOc4ccccc43)C2)CC1 (stereo not drawn) | 9% | 3 | 2.8% | -9%
CSc1ccccc1NC(=O)CN(C)C(=O)CNc1ccc(C(F)(F)F)cc1[N+](=O)[O-] | / | / | 3.0% | 0%
COc1ccc(OC)c(/C=C2\SC(=S)N(NS(=O)(=O)c3ccc(C)cc3)C2=O)c1 | -3% | / | 11% | -11%
CCOc1ccc2c(c1)sc(=NC(=O)C1CC1)n2C | -47% | 9 | -0.7% | -2%
Cc1cc(NC(=O)CSc2nnnn2C2CCCC2)no1 | 6% | -2 | -0.3% | -17%
CCN(C[C@H]1N[C@@](C)(C(=O)OC)[C@H]2C(=O)N(C)C(=O)[C@@H]12)C(=O)Nc1ccccc1 | / | / | -3.1% | 2%
O=C(NCc1ccc2c(c1)OCO2)c1nc(S(=O)(=O)Cc2ccccc2F)ncc1Cl | ? | / | -2.6% | -1%
CCC(NS(=O)(=O)c1c(C)[nH]c(=O)[nH]c1=O)C12CC3CC(CC(C3)C1)C2 (stereo not drawn) | -2% | -8 | -0.5% | -18%
CS(=O)(=O)N(CC(=O)Nc1ccc(Cl)c(Cl)c1)C1CCCCC1 | 29% | 0 | -1.7% | -2%
COc1ccc(NS(=O)(=O)c2cccc(NC(=O)CNC(C)=O)c2)cc1 | -2% | 7 | -1.3% | -9%
Cn1nnc2c(sc3nc(N4CCOCC4)c4c(c32)CCCC4)c1=O | -5% | -4 | 4.8% | -9%
CC1CCCCC1NC(=O)CN1C(=O)NC(C)(c2cccc(Br)c2)C1=O (stereo not drawn) | / | / | -2.8% | 0%
O=C(CCl)NC1(C(F)(F)F)C(=O)Nc2c1c(=O)[nH]c(=O)n2-c1ccccc1 (stereo not drawn) | 1% | -4 | -1.7% | 1%
O=C(Cc1ccc(Cl)cc1)NC1CCS(=O)(=O)C1 (stereo not drawn) | -1% | / | 0.0% | 19%
CCC(C)[C@H](NC(=O)C1CC(=O)N(c2ccc3c(c2)OCCO3)C1)C(=O)NC1CCCC1 (stereo partly drawn) | 0% | / | -0.2% | -1%
COc1ccc(OCc2nnc(SCC(=O)N3CCCCC3)o2)cc1 | 2% | / | -2.4% | -1%
CCC(C)N(C(=O)CSc1nnc(C)n1C)C1CCS(=O)(=O)C1 (stereo not drawn) | / | / | -1.3% | -12%
Cc1cc(C)cc(-n2ncc3c2CCCC3NC(=O)CCCn2cncn2)c1 (stereo not drawn) | / | / | 3.1% | 1%
CCOC(=O)/C(C#N)=C/c1cn(CCOc2ccc(OC)cc2)c2ccccc12 | 4% | -13 | ? | ?
COc1ccc(CNC(=O)c2cccc3c2C(=O)N(CC2CCCO2)C3)cc1 (stereo not drawn) | -1% | / | -0.9% | -6%
COC(=O)c1ccsc1NC(=O)c1ccc2c(c1)OCCO2 | -5% | 5 | -4.4% | 17%
COC(=O)c1[nH]c2ccc(C)cc2c1NS(=O)(=O)c1ccc(F)c(C)c1 | -19% | 0 | 0.7% | -2%
Cn1c(CCNC(=O)c2cccs2)n[nH]c1=S | 0% | 2 | 1.9% | -13%
N/C(=N\OC(=O)Oc1ccccc1)c1ccc(Br)cc1 | -6% | 1 | -0.2% | 1%
CCn1c(CNC(=O)C2CCCCC2)cc2ccccc21 | -4% | / | 3.2% | -14%
CCOC(=O)n1c(=O)oc2cc(S(=O)(=O)N3CCOCC3)ccc21 | -2% | 6 | 0.7% | 8%
O=C1CC2(CCOCC2)Oc2ccc3ccccc3c21 | / | / | -0.1% | 10%
CC(CNC(=O)c1cccs1)c1ccc([N+](=O)[O-])cc1 (stereo not drawn) | 10% | 6 | -0.1% | 42%
Cc1cccc(-n2c(N)cc(=O)nc2SCC(=O)Nc2nnc(CC(C)C)s2)c1 | -7% | 7 | / | /
COCCNC(=O)c1cc2c(s1)-c1ccc(Cl)cc1SC2 | -33% | / | 0.1% | 4%
CCOc1cc(C(=O)Oc2cc(C)[nH]c(=O)c2[N+](=O)[O-])cc(OCC)c1OCC | -2% | / | -2.5% | 3%
Cc1cc(C)nc(N/N=C/c2ccccc2OCC(=O)O)n1 | 1% | / | -1.7% | -1%
CCOc1ccc(CN(C)Cc2cc(=O)oc3c(C)c(C)ccc23)cc1OC | / | / | -1.4% | -10%
CCNS(=O)(=O)c1ccc(CCC(=O)Nc2ccccc2)cc1 | 0% | 6 | 2.1% | -2%
Cc1nc(SCC(=O)NC2CCCCC2C)nc(C)c1C (stereo not drawn) | / | / | 1.3% | 0%

# 2 of these compounds in another layout.
miR-21 FLuc | GLA inh pH 4.5 | Rango complex inh | Rango dissoc inh | Compound
-2% | / | -2.5% | 3% | CCOc1cc(C(=O)Oc2cc(C)[nH]c(=O)c2[N+](=O)[O-])cc(OCC)c1OCC
10% | 6 | -0.1% | 42% | CC(CNC(=O)c1cccs1)c1ccc([N+](=O)[O-])cc1 (stereo not drawn)

# (cont.)
Structure | miR-21 FLuc | GLA inh pH 4.5 | Rango complex inh | Rango dissoc inh
COc1ccc(N=Cc2c(O)n(-c3ccc(OC)cc3)c(=O)c3ccccc23)cc1 | 0% | -1 | ? | ?
O=C(N/N=C/c1ccc([N+](=O)[O-])cc1)c1c[nH]c2ccccc12 | -34% | -21 | -0.9% | 5%
COC(=O)c1cc(NC(=O)CN(c2cccc(OC)c2)S(=O)(=O)c2ccccc2)ccc1Cl | 27% | -4 | 0.2% | -12%
Cc1cc(C)n2nc(C(=O)N3CCCC(N4CCN(c5ccccc5C)CC4)C3)cc2n1 (stereo not drawn) | 3% | / | 4.4% | 4%
Cc1cccc2c(C(=O)O)cc(-c3cccnc3)nc12 | 5% | -3 | -0.7% | 10%
CC(CC(=O)Nc1ccc(Br)cc1F)S(=O)(=O)c1ccc2c(c1)NC(=O)CO2 (stereo not drawn) | 15%&14% | / | -0.7% | 2%
O=C(O)Cn1c(=O)c2c3c(sc2n(Cc2ccc(F)cc2)c1=O)CCCC3 | -6% | / | 2.2% | 2%
O=C1C2C(C(=O)N1c1ccc3c(c1)OCO3)C1C=CC2C12CC2 (stereo not drawn) | -2% | -6 | -0.2% | -12%
CCOC(=O)N1CCC(N2CCCC(C(=O)c3cccc(OC(C)C)c3)C2)CC1 (stereo not drawn) | 3% | -10 | 7.0% | 3%
CS(=O)(=O)N(CC(=O)N1CCc2ccccc2C1)c1ccc2c(c1)OCO2 | -1% | -2 | 1.0% | 8%
CC1=NN(C(=O)COc2ccccc2C)C(O)(c2ccc(Cl)cc2)C1 (stereo not drawn) | 0% | -1 | -0.4% | 8%
CNc1nc(N)c([N+](=O)[O-])c(N2CCCCCC2)n1 | -8% | / | 3.6% | 6%
CN(Cc1ccccc1)S(=O)(=O)c1ccc(Cl)c(C(=O)N2CCC(C(N)=O)CC2)c1 | / | / | 2.1% | -17%
CC(C)CCNS(=O)(=O)c1cc2c3c(c1)CCN3C(=O)CC2 | 4% | / | -1.1% | -10%
Oc1ccc(/C=N/Nc2ccc3ccccc3c2)c(O)c1 | -30% | -7 | ? | -22%
CN(C)S(=O)(=O)c1cccc(-c2cn3cccnc3n2)c1 | -2% | 25 | 0.0% | -8%
O=C(CNC(=O)c1cccnc1)N/N=C/c1cc(Br)c(O)c(Br)c1 | -1% | / | 1.1% | 0%
O=C(CN1CCCC1c1cccs1)N1CCN(S(=O)(=O)c2ccccc2)CC1 (stereo not drawn) | / | / | 3.7% | -6%
O=C(NC(=S)Nc1ccccc1N1CCCCC1)c1ccc(-c2cccc([N+](=O)[O-])c2)o1 | -4% | -8 | -2.6% | 9%
CC(=O)Nc1ccc(S(=O)(=O)c2c(N)n(CCN3CCOCC3)c3nc4ccccc4nc23)cc1 | 0% | 20 | 0.0% | -16%
O=C(CSCC(=O)NC1CC1)Nc1ccc2ccccc2c1 | -23% | -12 | 5.9% | 18%
COc1ccc(CCc2nnc(CCC(=O)NCc3cc(C(C)C)no3)o2)cc1 | -60% | 9 | -0.8% | -11%
CCOC(=O)CC1C(=O)NCCN1S(=O)(=O)c1cccc(C(F)(F)F)c1 (stereo not drawn) | 7% | / | 3.5% | -14%
COc1ccc(OC)c(Nc2nnc(C)c(=O)[nH]2)c1 | 4% | 2 | 1.3% | 5%
CCOC(=O)c1cc2sccc2n1CC(=O)OC(C)C | 1% | -4 | 0.2% | 8%
CC(=O)Nc1ccc(NCc2cccs2)cc1 | -16% | / | 0.4% | 1%
CCN(CC)c1ccc(N2C(=O)C3CCCCC3C2=O)cc1[N+](=O)[O-] (stereo not drawn) | -9% | 0 | 15% | 17%
Cc1ccc(C)c(S(=O)(=O)Nc2ccc(C(=O)N3CCCCC3)cc2)c1 | 0% | / | 4.0% | 9%
COc1ccccc1N1CCN(C2CCCN(C(=O)c3csc(C)n3)C2)CC1 (stereo not drawn) | -3% | / | -2.9% | 1%
COc1cc2cc(CCCOC(=O)c3ccc4c(c3)OCO4)oc(=O)c2cc1OC | / | / | 7.2% | 0%
O=C(NCCCn1ccnc1)c1ccncc1 | -5% | 1 | 0.9% | 7%
CCc1nnc(NS(=O)(=O)c2ccc(NC(=O)c3cc(Cl)ccc3[N+](=O)[O-])cc2)s1 | -7% | / | 1.3% | 12%
Cc1cc(C)nc(NC(=O)Nc2ccccc2C(F)(F)F)n1 | -3% | -11 | 1.6% | -6%

# 6 entries out of the list, arranged by molecular weight, highest first:
Structure | miR-21 FLuc | GLA inh pH 4.5 | Rango complex inh | Rango dissoc inh
COc1cc2cc(CCCOC(=O)c3ccc4c(c3)OCO4)oc(=O)c2cc1OC | / | / | 7.2% | 0%
COc1ccccc1N1CCN(C2CCCN(C(=O)c3csc(C)n3)C2)CC1 (stereo not drawn) | -3% | / | -2.9% | 1%
CCOC(=O)CC1C(=O)NCCN1S(=O)(=O)c1cccc(C(F)(F)F)c1 (stereo not drawn) | 7% | / | 3.5% | -14%
O=C(CSCC(=O)NC1CC1)Nc1ccc2ccccc2c1 | -23% | -12 | 5.9% | 18%
Cc1cc(C)nc(NC(=O)Nc2ccccc2C(F)(F)F)n1 | -3% | -11 | 1.6% | -6%
O=C(NCCCn1ccnc1)c1ccncc1 | -5% | 1 | 0.9% | 7%
